Screening data as filed in PubChem.
Cruzain inh noDet: blocks cruzain activity in detergent-free assay | P25779 | purified cruzain, Z-FR-AMC fluorescence, no detergent | Potency, µM, for the others: max response, negative = inhibition, most hits filed as inhibitors | 2.3% of 200,000 active | AID 1476; active means well fitted curve in the direction sought with a large enough effect; inconclusive means small, poorly fitted or top-dose-only effect, or another doubt; inactive means no such curve, though single readings can be large; an effect the other way counts as inactive or inconclusive;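 further: plate controls were enzyme without inhibitor for no effect and buffer without enzyme for full effect; nearly all actives have a fitted effect of over 40% in size; top concentration of the series not given in the record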
Target sequence (P25779 123-467 limits assumed): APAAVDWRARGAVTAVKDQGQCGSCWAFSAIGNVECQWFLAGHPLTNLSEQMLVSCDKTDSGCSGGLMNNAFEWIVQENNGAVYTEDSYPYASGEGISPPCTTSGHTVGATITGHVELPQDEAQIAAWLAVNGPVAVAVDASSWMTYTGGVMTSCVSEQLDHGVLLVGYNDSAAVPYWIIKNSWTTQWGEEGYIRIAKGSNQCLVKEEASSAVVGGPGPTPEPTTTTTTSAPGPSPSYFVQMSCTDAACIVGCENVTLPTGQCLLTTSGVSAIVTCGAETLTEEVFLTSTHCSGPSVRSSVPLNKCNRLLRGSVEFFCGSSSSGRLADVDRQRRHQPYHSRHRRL
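Detergent-free condition (0.00005% Triton X-100) in acetate buffer pH 5.5 with DTT. 1.5 nM enzyme and compound were pre-mixed 15 min, then 2 uM Z-FR-AMC substrate added; reaction progress from fluorescence change between first and third reads (60 s).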
NS1 function inh: influenza NS1 inhibition | S. cerevisiae slowed by influenza A NS1, growth recovery by OD600 | AID 2326 | 0.4% of 270,000 active | Potency, µM (titrated, usually from 46.1 µM), inactives show at the top dose activity, positive = more growth; further: actives are rising curves; nearly all actives have a fitted effect of over 50% in size
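OD600 was taken as the measure of yeast growth restored by compound in an NS1-expressing S. cerevisiae strain. Cells had been washed out of glucose medium and diluted 1:100 into galactose -URA medium, pH 6.0.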
SARS PLP yeast: inhibitors of SARS-CoV papain-like protease in yeast; Potency, µM (top dose mostly 32.9 µM), without a hit: top-dose activity, positive = growth rescue; S. cerevisiae expressing SARS-CoV PLpro, growth rescue; control for the full effect not named in the record; 0.19% of 330,000 active; further: 0% is about no effect; nearly all actives have a fitted effect of over 55% in size; growth read by luminescence after 48 h
RE007 growth inh: less growth of the S. pombe RE007 Vpr strain. S. pombe RE007 Vpr strain, BacTiter-Glo ATP luminescence, 24 h; control for the full effect not named in the record. Potency, µM (series often up to 92.2 µM), for inactives: at the highest dose activity change, negative = less growth. 0.21% of 360,000 active. AID 651644; active = well fitted falling curve with a large enough effect; inconclusive = small, poorly fitted or top-dose-only effect; inactive = no such curve, though single readings can be large or run the other way;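 further: on the % scale 0 is the no-effect control and ±100 the full control effect; nearly all actives have a fitted effect of over 50% in size; the assay follows cell death caused by Vpr and the record does not say whether a fall means rescue or toxicity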
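Fission yeast RE007 carrying one integrated HIV-1 vpr copy, seeded at OD 0.01 in PMG+AL medium with 23 nL pinned compound. Grown 24 h at 30 degrees; viability read by BacTiter-Glo luminescence after 5 min.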
StopGo reporter: lowers the luciferase signal of an FMDV 2A StopGo reporter | human cells with a luciferase reporter of 2A StopGo recoding; control for the full effect not named in the record | Potency, µM (doses to about 57.9 µM), for inactives: top-dose signal change, negative = less light | 1.2% of 410,000 active; active = well fitted falling curve with a large enough effect; inconclusive = small, poorly fitted or top-dose-only effect; inactive = no such curve, though single readings can be large or run the other way; tested in HEK293T cells; further: on the % scale 0 is the no-effect control and ±100 the full control effect; nearly all actives have a fitted effect of over 45% in size; luciferase light after 4 h
Cruzain inh Det: inhibitors of Trypanosoma cruzi cruzain with detergent; Potency, µM, inactives show max response, negative = inhibition, usual class: inhibitors; P25779; 0.43% of 200,000 active; purified cruzain, Z-FR-AMC fluorescence, 0.01% Triton; active means well fitted curve in the direction sought with a large enough effect; inconclusive means small, poorly fitted or top-dose-only effect, or another doubt; inactive means no such curve, though single readings can be large; an effect the other way counts as inactive or inconclusive;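 further: plate controls were neutral wells for no effect and buffer without enzyme for full effect; nearly all actives have a fitted effect of over 40% in size; top concentration of the series not given in the record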
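In this qHTS format, compounds are incubated with 1.5 nM cruzain for 15 min at room temperature before 2 uM Z-FR-AMC is added. Release of AMC is followed at 360/450 nm, and progress is taken as the 60 s fluorescence difference.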
MARV entry inh: inhibitors of Marburg virus binding or cell entry. Potency, µM (series often up to 37.8 µM), for the others: top-dose activity change, negative = inhibition, usual class: inhibitors. AID 540276. Marburg virus pseudotyped entry inhibition, cell reporter; control for the full effect not named in the record; about a third of the inactives were read at about 46 µM. 1.8% of 300,000 active; active = well fitted inhibition curve with a large enough effect; inconclusive = small, poorly fitted or top-dose-only effect, or effect the other way; inactive = flat fitted curve, though single readings scatter; tested in HEK293 cells; about a fifth of its hits are not listed in these tables; further: on the % scale 0 is the no-effect control and ±100 the full control effect; luciferase read-out
Lassa entry inh: inhibitors of Lassa virus binding or cell entry; Lassa virus pseudotype entry inhibition, cell reporter; control for the full effect not named in the record; Potency, µM (doses to about 37.9 µM), without a hit: at the top dose activity change, negative = inhibition, most hits filed as inhibitors; 1.2% of 300,000 active; AID 540256; active means well fitted inhibition curve with a large enough effect; inconclusive means small, poorly fitted or top-dose-only effect, or effect the other way; inactive means flat fitted curve, though single readings scatter; tested in HEK293 cells; further: on the % scale 0 is the no-effect control and ±100 the full control effect; nearly all actives have a fitted effect of over 50% in size; luciferase read-out
* hit, by the source's call; ? = inconclusive; · = no result given; [ ] = remark or other dose. Unless noted, the call rests on the fitted dose curve; in most records, active means well fitted rising curve with a large enough effect; inconclusive means small, poorly fitted or top-dose-only effect; inactive means no such curve, though single readings can be large or run the other way. Potency means the concentration at half of the fitted maximal effect.

Keys – A = Cruzain inh noDet; B = NS1 function inh; C = SARS PLP yeast; D = RE007 growth inh; E = StopGo reporter; F = Cruzain inh Det; G = MARV entry inh; H = Lassa entry inh
COc1cc(CN2CCSCC2)c([N+](=O)[O-])cc1OC
  A = ·; B = -2%; C = 4%; D = -18%; E = -2%; F = ·; G = 10%; H = -8%

O=S(=O)(Nc1ccc2c(c1)OCO2)c1cccs1
  A = -10%; B = 1%; C = -2%; D = -14%; E = 55%[activator]; F = -0.3%; G = 13%; H = 18%

CCN(CC)C(=O)Oc1ccnc2cc(Cl)ccc12
  A = ·; B = -8%; C = 0%; D = 9%; E = -10%; F = ·; G = -6%[46.1 µM]; H = ?

O=C(c1ccc(Cl)cc1)N1N=C(c2ccccn2)CC1(O)C(F)(F)F (stereo not given)
  A = ·; B = -5%; C = -3%; D = -13%; E = 9%; F = ·; G = 7.9µM*; H = -23%[46.1 µM]

O=C(NC(Cc1c[nH]c2ccccc12)C(=O)N/N=C/c1cccnc1)c1cccs1 (stereo not given)
  A = ·; B = 8%; C = 1%; D = -15%; E = -12%; F = ·; G = ?; H = ?

Cc1cccc(N2CCN(Cc3nnc(-c4ccc5c(c4)OCO5)o3)CC2)c1C
  A = -10%; B = ·; C = ·; D = ·; E = 2%; F = -1.6%; G = ?; H = -13%[46.1 µM]

COc1cccc(-c2nn(-c3ccccc3)cc2C(=O)OCC(=O)Nc2ncc(Cl)cc2Cl)c1
  A = ?; B = -4%; C = 24%; D = -3%; E = -18%; F = -4.2%; G = -25%; H = -9%

NS(=O)(=O)c1ccc(CCNC(=O)COC(=O)C2CCN(c3ccc(C(F)(F)F)cn3)CC2)cc1
  A = ·; B = ·; C = ·; D = 5%; E = 3%; F = ·; G = 39%; H = ?

O=S(=O)(c1ccc(NCCOc2ccccc2)nc1)N1CCCC1
  A = ·; B = ·; C = -2%; D = 34%; E = -22%; F = ·; G = -6%; H = -1%

COc1ccc(NP2(=O)OCC(C)(N)CO2)cc1 (stereo not given)
  A = ·; B = ·; C = ·; D = 1%; E = -20%; F = ·; G = 6%; H = -2%

CCOC(=O)c1ccc(NC(=O)CCc2c(C)nc3c(c(C)nn3C)c2C)cc1
  A = ?; B = ·; C = ·; D = ·; E = ?; F = -14%; G = -15%[46.1 µM]; H = 0%[46.1 µM]

COCCNC(=O)c1c(N)sc2c1CCCC2
  A = ?; B = 9%; C = 1%; D = ·; E = ·; F = -11%; G = 1%; H = ·

COc1ccc(Cn2nnnc2CN(CCCN2CCOCC2)Cc2cc3cc(OC)ccc3[nH]c2=O)cc1
  A = ·; B = -1%; C = 0%; D = -15%; E = -12%; F = ·; G = ?; H = -7%

CCOCCCNCc1cc(Cl)cc(Cl)c1OCC
  A = ·; B = 4%; C = -1%; D = 7%; E = -16%; F = ·; G = ·; H = ·

CCOC(=O)C1(CCOc2ccccc2)CCN(Cc2cccc(OC)c2O)CC1
  A = ·; B = 23%; C = 3%; D = -4%; E = ?; F = ·; G = ?; H = ?

OCC1(Cc2cccc(C(F)(F)F)c2)CCN(Cc2cc3ccccc3o2)CC1
  A = ·; B = -2%; C = -2%; D = ?; E = -28%; F = ·; G = ?; H = 1%

COc1ccc(S(=O)(=O)Cc2ccccc2)cc1N
  A = -3%; B = -4%; C = 2%; D = 21%; E = 15%; F = 2.2%; G = -18%; H = 15%

O=c1oc2ccc3ccccc3c2cc1-c1nnc(Nc2ccc(F)cc2)s1
  A = -3%; B = ·; C = ·; D = ·; E = -4%; F = 0.6%; G = ·; H = 11%[46.1 µM]

CCOC(=O)c1nn(-c2ccc(F)cc2)c(=O)c2c(N)scc12
  A = ·; B = 0%; C = 0%; D = -1%; E = -3%; F = ·; G = -2%[46.1 µM]; H = 2%[46.1 µM]

COc1ccc2nc(SCC(=O)NN)cc(C)c2c1
  A = 9%; B = 27%; C = -1%; D = -9%[3.69 µM]; E = -12%; F = -4.6%; G = -33%; H = 0%

N#Cc1cc2cc3c(cc2nc1SCC(=O)N1CCCC1)OCCO3
  A = ·; B = 9%; C = 1%; D = 2%; E = 17%; F = ·; G = ?; H = ?

Cc1cnc(C(=O)OC(C)C(=O)NCc2ccccc2)cn1 (stereo not given)
  A = ·; B = ·; C = -2%; D = -16%; E = -2%; F = ·; G = 0%; H = -8%[46.1 µM]

O=C(Cn1cnc2cc([N+](=O)[O-])ccc2c1=O)Nc1cccc(S(=O)(=O)N2CCOCC2)c1
  A = ·; B = 14%; C = 2%; D = -10%; E = -3%; F = ·; G = -11%[46.1 µM]; H = 7%

CCOC(=O)c1cnc2c(-c3ccccc3)c(C)nn2c1N
  A = -5%; B = -9%; C = -1%; D = -16%; E = 36%[activator]; F = -0.5%; G = -26%; H = -13%

Clc1ccc(-c2ccc(CNCC3CCCO3)o2)cc1 (stereo not given)
  A = ·; B = -3%; C = -1%; D = 0%; E = 28%; F = ·; G = ?; H = ?

Additional results follow:
Keys – A = Cruzain inh noDet; B = NS1 function inh; C = SARS PLP yeast; D = RE007 growth inh; E = StopGo reporter; F = Cruzain inh Det; G = MARV entry inh; H = Lassa entry inh
CC1CCCCC12NC(=O)N(CC(=O)Nc1nccs1)C2=O (stereo not given)
  A = ·; B = ·; C = -7%; D = -9%; E = -10%; F = ·; G = 13%[46.1 µM]; H = 24%[46.1 µM]

CN(CC(=O)Nc1ccccc1Cl)C(=O)COC(=O)c1nc(Cl)c(Cl)c(Cl)c1Cl
  A = ·; B = -35%; C = -4%; D = -3%; E = ?; F = ·; G = ·; H = ·

COc1ccc(Cl)cc1NC(=O)Cn1c(C)csc1=O
  A = ·; B = ·; C = -2%; D = 40%; E = 3%; F = ·; G = 30%; H = 2%

CCOc1ccccc1N(C(=O)c1snc(C(N)=O)c1N)C(CC)C(=O)NC1CCCC1 (stereo not given)
  A = ·; B = 21%; C = -7%; D = -6%; E = -10%; F = ·; G = ?; H = ?

O=C(CSc1ncnc2c1cnn2-c1ccccc1Cl)N1CCN(C(=O)c2ccco2)CC1
  A = -7%; B = -11%; C = -4%; D = -4%; E = 35µM*; F = 1.7%; G = -23%[46.1 µM]; H = ?

CCNC(=O)C(C)NC(=O)C1=NN(c2ccccc2)C(=O)CC1 (stereo not given)
  A = ·; B = -4%; C = -11%; D = 22%; E = -18%; F = ·; G = -1%[46.1 µM]; H = -3%

CCc1nc(Nc2ccc(F)c(Cl)c2)c2c3c(sc2n1)CCCC3
  A = 15%; B = ·; C = ·; D = ·; E = -8%; F = -3.5%; G = 0%[46.1 µM]; H = -1%[46.1 µM]

O=C(OC1CCOC1=O)c1cccc(S(=O)(=O)Nc2cccc(Cl)c2)c1 (stereo not given)
  A = 26%; B = 1%; C = -5%; D = 2%; E = 61%[activator]; F = -14%; G = 0%; H = ?

CSc1ccccc1C(=O)NCCc1ccc(S(=O)(=O)N2CCCCC2)cc1
  A = -4%; B = -11%; C = -1%; D = -8%; E = -5%; F = -2.3%; G = 18%; H = 0%

COc1cccc(/C=C2\Sc3ccc(C(=O)NCC4CCCO4)cc3N(C)C2=O)c1 (stereo not given)
  A = ·; B = -4%; C = -7%; D = 10%; E = -37%; F = ·; G = ·; H = ·

N#Cc1cnn(Cc2ccccc2)c1N
  A = 10%; B = 0%; C = -3%; D = 12%; E = -17%; F = 4.9%; G = 6%; H = -1%

CCN1CCN(Cc2cc(=O)oc3cc(C)cc(C)c23)CC1
  A = -9%; B = 1%; C = -3%; D = -24%; E = -7%; F = 0.4%; G = ?; H = 15%

CCO[C@H]1OC(C(=O)N2CCCCCCC2)=C[C@@H](c2csc3ccccc23)[C@@H]1CCCO
  A = ·; B = -10%; C = 0%; D = -9%; E = 49%[activator]; F = ·; G = ·; H = ·

COCCNC(=O)COC(=O)C1=Cc2ccccc2OC1
  A = ·; B = 4%; C = -1%; D = 6%; E = 11%; F = ·; G = ?; H = -6%[46.1 µM]

O=C(Cn1ncc2c(=O)oc3ccccc3c21)N1CCN(c2ccccn2)CC1
  A = 13%; B = -12%; C = -8%; D = -5%; E = -26%; F = 0.5%; G = 17%; H = -18%

CC(C)Cc1nnc(NC(=O)c2cccc(S(=O)(=O)N3CCN(C)CC3)c2)s1
  A = ·; B = ·; C = -3%; D = -7%; E = -16%; F = ·; G = 5%; H = 10%

O=c1c2ccccc2c(-c2ccccc2)nn1Cc1ccccc1
  A = -1%; B = 1%; C = 18%; D = 3%; E = 4%; F = -2.3%; G = -1%; H = 11%

CCOCCCNC(=O)C1CCN(S(=O)(=O)c2ccc(C)cc2)CC1
  A = 4%; B = -3%; C = 16%; D = 4%; E = 19%; F = 0.1%; G = 11%; H = 19%

Cc1cc(S(=O)(=O)Nc2ccc3c(c2)n(C)c(=O)n3C)ccc1F
  A = ·; B = ·; C = 2%; D = 4%; E = -6%; F = ·; G = -11%[46.1 µM]; H = -8%[46.1 µM]

Cc1cc(C)c(C(=O)CSc2nnc(C)s2)c(C)c1
  A = ·; B = -4%; C = -1%; D = 13%; E = 4%; F = ·; G = 4%[46.1 µM]; H = 6%[46.1 µM]

CN(C)C(=O)N1CCC(C(=O)NCc2ccc(F)cc2Cl)CC1
  A = -7%; B = 6%; C = 3%; D = 8%; E = ·; F = -2.5%; G = -8%; H = 1%

COc1ccccc1C(=O)Nc1ccc(C)cc1C(=O)c1ccccc1
  A = 6%; B = -5%; C = -16%; D = -17%; E = -17%; F = -6.5%; G = 7%; H = -3%

CCOC(=O)c1c(C)[nH]c(C)c1C(=O)COC(=O)/C=C/c1ccc(OC)cc1
  A = ·; B = ·; C = -3%; D = 4%; E = ?; F = ·; G = ?; H = ?

A different layout for two compounds above:
SMILES: CN(C)C(=O)N1CCC(C(=O)NCc2ccc(F)cc2Cl)CC1
  Cruzain inh noDet = -7% | NS1 function inh = 6% | SARS PLP yeast = 3% | RE007 growth inh = 8% | StopGo reporter = · | Cruzain inh Det = -2.5% | MARV entry inh = -8% | Lassa entry inh = 1%
SMILES: COc1ccccc1C(=O)Nc1ccc(C)cc1C(=O)c1ccccc1
  Cruzain inh noDet = 6% | NS1 function inh = -5% | SARS PLP yeast = -16% | RE007 growth inh = -17% | StopGo reporter = -17% | Cruzain inh Det = -6.5% | MARV entry inh = 7% | Lassa entry inh = -3%
